TRPML1 ag: human mucolipin-1 channel agonism; activation, % (no concentration beside the values); actives 0.12% (n = 410,000); Q9GZU1; TRPML1-expressing cells, Ca2+ dye fluorescence, FDSS; host cell line not named in the record; reference of the full effect not given here; in the data active = activation above about 50%; inconclusive = about 30% to 50%; inactive = below about 30%; note: 0% is about no effect; the text of the record puts the active cut at 80%
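Kinetic FDSS Ca2+ read in Tet-induced TRPML1-DL cells (ABD Ca8 dye plus quencher, 45-90 min RT loading): baseline, then compound, then 110 s agonist window; EC80 agonist 54-4 at 4uM final added afterwards for a 110 s antagonist window.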
TRPML1 inh: human mucolipin-1 channel inhibition; AID 624415; actives 0.02% (n = 390,000); TRPML1-inducible cells, Ca2+ dye fluorescence, FDSS; stronger effect = lower value; inhibition of EC80 agonist-evoked calcium signal; Q9GZU1; activity change, negative = inhibition, % (test concentration not listed); in the data active means activity change below about -50%; inconclusive means about -30% to -50%; inactive means above about -30%;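 note: stimulus is agonist 54-4 at its EC80 concentration; % is set by controls: 0 for no effect and ±100 for the full control effect; compound concentration not given in the record; the text of the record puts the active cut at -80%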
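Tet-induced TRPML1-DL cells loaded with Ca8 no-wash calcium dye were read kinetically on FDSS. Compound addition was followed by EC80 agonist 54-4 (4 uM final); inhibition was read over 110 s.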
D2 potentiator: human D2 receptor positive allosteric modulation; DiscoveRx D2 beta-arrestin cells, luminescence, 90 min; 100% = 57 uM dopamine signal; AID 624464; potentiation, % (no concentration beside the values); actives 0.23% (n = 360,000); P14416; active = potentiation of 50% or more; inconclusive = 30% to 50%; inactive = 30% or less;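 note: compound concentration not given in the record; tested on top of an EC20 dose of dopamine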
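PathHunter beta-arrestin assay in DiscoveRx D2 cells. Compounds were added with an EC20 of dopamine (50 nM final) for 90 min at 37 deg C. Luminescence was read 1 h after detection reagent, with 57 uM dopamine as the EC100 control.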
TRPV1 potentiator: human TRPV1 potentiation; Q8NER1; TRPV1-expressing cells, Fluo-8 calcium influx, capsaicin EC20 potentiation; host cell line not named in the record; control for the full effect not named in the record; potentiation, % at 8.33 µM; actives 0.02% (n = 320,000); AID 540277; active means potentiation above 80%; inconclusive means 30% to 80%; inactive means below 30%; note: 0% is about no effect
Target sequence (Q8NER1 whole entry, looked up): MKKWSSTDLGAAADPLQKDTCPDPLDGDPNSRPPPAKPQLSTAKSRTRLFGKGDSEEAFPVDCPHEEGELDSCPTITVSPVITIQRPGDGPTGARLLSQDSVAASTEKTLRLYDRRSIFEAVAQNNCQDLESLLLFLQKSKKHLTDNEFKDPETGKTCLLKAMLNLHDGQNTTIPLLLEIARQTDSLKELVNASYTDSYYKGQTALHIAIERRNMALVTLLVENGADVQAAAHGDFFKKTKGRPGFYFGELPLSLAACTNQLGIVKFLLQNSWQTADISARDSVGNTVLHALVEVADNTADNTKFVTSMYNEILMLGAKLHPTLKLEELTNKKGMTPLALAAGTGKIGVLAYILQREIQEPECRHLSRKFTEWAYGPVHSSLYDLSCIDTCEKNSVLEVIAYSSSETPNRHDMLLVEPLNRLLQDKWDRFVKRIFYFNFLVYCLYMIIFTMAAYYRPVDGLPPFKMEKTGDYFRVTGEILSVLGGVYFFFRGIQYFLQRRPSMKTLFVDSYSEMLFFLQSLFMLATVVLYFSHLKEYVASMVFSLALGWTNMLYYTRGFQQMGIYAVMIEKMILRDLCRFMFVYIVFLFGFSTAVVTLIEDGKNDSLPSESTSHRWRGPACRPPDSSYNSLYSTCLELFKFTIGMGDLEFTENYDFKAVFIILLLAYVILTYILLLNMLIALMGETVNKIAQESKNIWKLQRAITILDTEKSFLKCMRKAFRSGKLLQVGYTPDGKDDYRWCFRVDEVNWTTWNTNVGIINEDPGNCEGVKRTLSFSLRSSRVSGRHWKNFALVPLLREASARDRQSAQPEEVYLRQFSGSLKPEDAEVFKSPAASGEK
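Fluo-8 calcium influx in TRPV1-expressing cells, kinetic read (ex 480/em 520 nm). Compound added and read 3 min for agonist activity, followed by capsaicin at EC20 final and 2 min further read for enhancement.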
Six1-Eya2 blk: blocks human Six1 binding to Eya2; actives 0.56% (n = 360,000); activity change, % (test concentration not listed); AID 651725; Q15475+O00167; AlphaScreen GST-Six1/His-Eya2 binding, biochemical; stronger effect = lower value; control for the full effect not named in the record; in the data active = activity change below about -65%; inconclusive = about -30% to -65%; inactive = above about -30%; note: % is set by controls: 0 for no effect and ±100 for the full control effect; compound concentration not given in the record
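Compounds are tested against tagged Six1 and Eya2 proteins bridged by glutathione donor and nickel acceptor beads; after a one-hour incubation at 37 °C without light, AlphaScreen emission is recorded.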
CtBP-E1A inh: inhibitors of CtBP/E1A interaction. AlphaScreen GST-E1A/His-CtBP binding, 1536-well; stronger effect = lower value; control for the full effect not named in the record. activity change, % (test concentration not listed). actives 0.49% (n = 340,000). AID 651724; in the data active means activity change below about -65%; inconclusive means about -30% to -65%; inactive means above about -30%; note: % is set by controls: 0 for no effect and ±100 for the full control effect; compound concentration not given in the record
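Homogeneous bead-based format: GST-tagged E1A captured on glutathione donor beads, His-tagged CtBP on nickel acceptor beads; compounds precede bead addition by 2 h at 37 °C.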
* marks the source's active call; other numbers are inactive results; ? = inconclusive; . = not tested or not shown; & = joins results of further samples. No enrichment for hits (roughly 0.95% active in at least one column).

SMILES	TRPML1 ag	TRPML1 inh	D2 potentiator	TRPV1 potentiator	Six1-Eya2 blk	CtBP-E1A inh
C=C(C)C1Cc2c(C)nn(-c3ccccn3)c2C1 (centres undefined)	2.4	-7.0	-6.4	11.1	14.3	0.6
CC(C)CC(=O)N1CCN(C(=O)c2cccc(F)c2)CC1	0.4	9.1	-5.4	22.6	4.6	-0.4
O=C(COC(=O)c1cnccn1)Nc1cc(S(=O)(=O)N2CCOCC2)ccc1Cl	0.0	4.6	-4.2	.	2.3	2.1
CN(C)c1ncnc2c1ncn2[C@H]1CN(Cc2cccs2)C[C@@H](CO)O1	-0.7	.	-3.1	.	-3.1	1.8
O=C(C[n+]1cccc(/C=N/O)c1)N1CCCCCC1	1.7	-4.2	-2.8	-6.7	3.3	-11.4
COc1ccc2c(c1)[nH]c1c(=O)n(CCCN3CCOCC3)cnc12	-0.7	4.6	-10.1	1.3	-5.7	-2.0
Cn1cnnc1SCC(=O)Nc1cc(S(=O)(=O)N2CCCCCC2)ccc1Cl	6.0	10.0	-12.3	7.7	-12.4	-5.2
N#Cc1cn(-c2ccccc2)nc1-c1ccccc1	1.4	1.1	7.9	-8.3	6.3	5.9
CCSc1nnc(-c2ccc(C)cc2)c2ccccc12	0.5	17.7	-11.6	-11.3	4.2	3.3
FC(F)(F)c1cnc(-n2cc[nH]c2=S)c(Cl)c1	0.4	-9.4	0.6	7.9	0.0	0.2
O=C(CSc1ccccc1F)NCCN1C(=O)CSC1=O	1.2	-10.2	-3.1	.	4.8	10.3
CN(CCOc1ccc(Cl)cc1)C(=O)c1cc(-c2ccco2)nc2ccccc12	1.2	54.6	8.6	-7.0	-12.3	-0.3
COc1ccc([C@H]2CC(=O)C=C(c3cc(Cl)ccc3OC)C2)cc1	2.4	1.9	-2.2	11.2	-5.6	4.9
CCCNC(=O)[C@@H]1CCCN1C(=O)[C@@H]1Cc2ccccc2CN1	-0.2	17.4	-6.3	8.3	6.8	2.3
COc1cccc(C(=O)/C=C/Nc2cc(C)ccc2O)c1	2.1	-7.2	5.0	15.0	-6.6	-9.7
CCCCCc1ccc(-c2cn(Cc3ccc([N+](=O)[O-])cc3)nn2)cc1	1.1&0.5	19.9	8.2	-10.4	-1.5	-0.2
CN1CCN(C(=S)NC(=O)c2ccc(C(C)(C)C)cc2)CC1	0.6	1.6	-16.1	-0.4	22.2	0.0
CC(C)(C)OC(=O)N1Cc2ccccc2C[C@H]1C(=O)N1CCC[C@H]1C(=O)O	0.1	-8.8	-1.0	?	5.8	5.5
O=C(COc1ccccc1[N+](=O)[O-])N/N=C/c1cccs1	-0.1	-9.5	-1.0	-3.5	2.7	16.1
CC1CCc2c(sc(NC(=O)COC(=O)c3ccc(O)cc3)c2C#N)C1 (centres undefined)	-0.3	-12.7	4.7	2.3	0.0	2.4
COc1ccc(C(C)C)cc1S(=O)(=O)Nc1cccnc1	-0.8	8.4	-8.3	.	-15.0	-8.7
O=C(NCCc1ccc(Cl)cc1)C1CCC(=O)N1C1CCCC1 (centres undefined)	-0.1	8.4	-19.5	.	-1.7	8.5
COc1cccc(CNC(=O)c2cc(C)nc3ccccc23)c1	0.5	9.6	-5.2	4.2	10.9	0.4
Cc1sc(NC(=O)C2=COCCO2)c(C#N)c1C	0.3	21.5	-9.2	-9.3	-0.4	5.0
CC1C(=O)Nc2ccc(S(=O)(=O)N3CCN(c4cccc(Cl)c4)CC3)cc2NC1=O (centres undefined)	-0.5	16.6	-2.5	-1.9	-1.9	-2.8
COc1cccc(CNC(=O)COC(=O)c2nn(C)c(=O)c3ccccc23)c1	0.4	7.6	-6.8	.	-1.1	1.4
Cc1onc(-c2ccccc2Cl)c1C(=O)Nc1cccc2nsnc12	0.8	0.6	5.5	5.3	5.7	9.4
CCOC(=O)[C@@H]1[C@H]2COc3ccc(Br)cc3[C@@H]2N2C(=O)N(c3ccc(C(F)(F)F)cc3)C(=O)[C@@]12C	-0.9	-9.3	1.8	12.5	-1.5	-0.3
Cc1nc(-c2cccc(NC(=O)C(C)Oc3ccccc3)c2)cs1 (centres undefined)	0.3	17.8	-31.2	-5.3	2.7	10.4
O=C(O)CCCC(=O)Nc1nc(-c2ccccc2)cs1	0.9	9.1	-2.5	-4.9	-5.2	3.2
O=C(O)C1CCCN(S(=O)(=O)c2ccccc2[N+](=O)[O-])C1 (centres undefined)	-0.4	25.9	2.8	-2.2	0.8	7.4
CCCc1ccc(C#N)c(SC2CC(=O)N(c3ccc(OC)cc3)C2=O)n1 (centres undefined)	0.8	-6.3	5.8	4.3	?	0.8
Cc1nc(SCC(=O)NNC(=O)c2ccc(F)cc2)c2ccccc2n1	0.2	16.1	-4.0	.	-7.9	?
C#CCNCCS(=O)(=O)N(Cc1ccc(Br)cc1)[C@@H](CC(C)C)C(=O)O	-0.4	6.8	-4.9	.	-1.7	2.3
Cc1cnc(C(=O)NC2CC(C)(C)Cc3c2cnn3-c2ccccc2)cn1 (centres undefined)	-0.5	-10.3	2.3	-20.4	-3.8	7.5
Cc1cc(C(=O)N2CCC2(C)C(=O)Nc2ccc3[nH]ncc3c2)nn1C (centres undefined)	0.1	.	-34.0	.	-13.5	-12.1
CC(Sc1nncs1)C(=O)NCC(=O)Nc1ccc(F)c(F)c1F (centres undefined)	-0.6	-26.5	-8.3	8.3	0.6	5.7
Cc1sc2nc(CSc3nnnn3-c3ccc(Cl)cc3)[nH]c(=O)c2c1C	-0.1	-7.2	-24.9	-1.6	-1.0	-12.2
CCOC(=O)N1CCC(NC(=O)CC(NS(=O)(=O)c2ccc(C)cc2)c2ccco2)CC1 (centres undefined)	-0.1	17.7	0.3	?	-0.3	9.9
CC(=O)NC1C(=O)Nc2c1cccc2C(F)(F)F (centres undefined)	0.7	?	-34.6	-3.6	-2.7	-0.2
O=c1ccc2cc(S(=O)(=O)N3CCN(c4ccccc4)CC3)ccc2o1	1.0	16.6	-16.9	-11.7	9.1	11.1
CCOc1ccccc1NC(=O)Nc1ccc(Cl)cc1	2.1	-2.7	-23.0	-3.2	9.4	18.8
Cn1c(=O)n(Cc2ccccc2)c(=O)c2c1nc1n2CCCN1CCc1ccccc1	2.4	68.3	-9.6	-1.2	?	?
COC(=O)CSc1nc(NC(C)=O)nc(C)c1Br	0.4	2.8	-12.1	-4.1	-4.4	-0.5
CN(C)C(CNC(=O)c1ccc(NS(=O)(=O)c2ccc3[nH]c(=O)[nH]c3c2)cc1)c1ccccc1 (centres undefined)	-0.1	3.7	-12.3	-0.8	-3.0	24.3
C=C(C)c1cccc(C(C)(C)NC(=O)Nc2nnc(C(C)C)s2)c1	0.2	-4.2	-10.4	?	-1.2	.
C=CCn1c(Br)nc2c1c(=O)n(C)c(=O)n2C	1.0	6.9	-12.7	?	-2.1	7.6
Cc1ccccc1C1(CCN2CCCCC2)CCOC(C)(C)C1 (centres undefined)	-0.5	-5.4	-5.8	4.7	-11.1	-2.1

Grouped by structure, the entries above with bromine
SMILES	TRPML1 ag	TRPML1 inh	D2 potentiator	TRPV1 potentiator	Six1-Eya2 blk	CtBP-E1A inh
CCOC(=O)[C@@H]1[C@H]2COc3ccc(Br)cc3[C@@H]2N2C(=O)N(c3ccc(C(F)(F)F)cc3)C(=O)[C@@]12C	-0.9	-9.3	1.8	12.5	-1.5	-0.3
C#CCNCCS(=O)(=O)N(Cc1ccc(Br)cc1)[C@@H](CC(C)C)C(=O)O	-0.4	6.8	-4.9	.	-1.7	2.3
COC(=O)CSc1nc(NC(C)=O)nc(C)c1Br	0.4	2.8	-12.1	-4.1	-4.4	-0.5
C=CCn1c(Br)nc2c1c(=O)n(C)c(=O)n2C	1.0	6.9	-12.7	?	-2.1	7.6

Limited to D2 potentiator and Six1-Eya2 blk, for 6 of the compounds above:
SMILES	D2 potentiator	Six1-Eya2 blk
CCOC(=O)N1CCC(NC(=O)CC(NS(=O)(=O)c2ccc(C)cc2)c2ccco2)CC1 (centres undefined)	0.3	-0.3
CC(=O)NC1C(=O)Nc2c1cccc2C(F)(F)F (centres undefined)	-34.6	-2.7
O=c1ccc2cc(S(=O)(=O)N3CCN(c4ccccc4)CC3)ccc2o1	-16.9	9.1
CCOc1ccccc1NC(=O)Nc1ccc(Cl)cc1	-23.0	9.4
Cn1c(=O)n(Cc2ccccc2)c(=O)c2c1nc1n2CCCN1CCc1ccccc1	-9.6	?
COC(=O)CSc1nc(NC(C)=O)nc(C)c1Br	-12.1	-4.4

A different layout for some results above:
CCCc1ccc(C#N)c(SC2CC(=O)N(c3ccc(OC)cc3)C2=O)n1 (centres undefined)
  TRPML1 ag: 0.8
  TRPML1 inh: -6.3
  D2 potentiator: 5.8
  TRPV1 potentiator: 4.3
  Six1-Eya2 blk: ?
  CtBP-E1A inh: 0.8
COc1cccc(C(=O)/C=C/Nc2cc(C)ccc2O)c1
  TRPML1 ag: 2.1
  TRPML1 inh: -7.2
  D2 potentiator: 5.0
  TRPV1 potentiator: 15.0
  Six1-Eya2 blk: -6.6
  CtBP-E1A inh: -9.7

Next results
SMILES	TRPML1 ag	TRPML1 inh	D2 potentiator	TRPV1 potentiator	Six1-Eya2 blk	CtBP-E1A inh
CC1CCC(NC(=O)N(CCCl)N=O)CC1 (centres undefined)	0.2	33.0	-10.3	.	6.0	-2.0
CCN(CC)C(=O)N1CCc2ccccc2C1CN1C(=O)c2ccccc2C1=O (centres undefined)	4.2	5.4	1.8	.	-5.0	0.8
COc1ccc(-c2csc(C(C)(NC(C)=O)c3ccccc3)n2)cc1 (centres undefined)	-1.0	.	0.2	.	3.2	1.8
CCNc1nc(N)c(C(=O)C23CC4CC(CC(C4)C2)C3)s1	0.9	20.9	0.7	-11.4	-5.4	.
CCN(CC)c1ccc2c(-c3ccc(S(=O)(=O)O)cc3S(=O)(=O)[O-])c3ccc(=[N+](CC)CC)cc-3oc2c1	20.7	-8.0	-9.9	15.4	-66.8*	?
Cc1cc(F)ccc1S(=O)(=O)Nc1nc2ccccc2nc1Cl	1.0	11.2	-5.2	15.9	-1.3	-15.6
CCOc1cc2nc3c4ccccc4n(C)c3nc2cc1OCC	0.5	-12.1	0.2	13.1	8.2	.
Cc1ccc(Cn2nnc3c(=O)[nH]c(C4CCCN(C(=O)Nc5ccc(F)cc5F)C4)nc32)cc1 (centres undefined)	1.2	-0.7	-13.4	8.1	0.7	1.9
Cn1c(SCC(=O)Nc2cc([N+](=O)[O-])ccc2F)nnc1C(F)(F)F	-1.5	10.7	-7.7	-3.1	2.7	0.3
Cc1ccc(Cn2c(CN3CCN(C(=O)c4ccco4)CC3)nc3c2c(=O)n(C)c(=O)n3C)cc1	1.0	-4.3	-10.8	-8.4	-12.3	-11.0
O=C(CCCN1C(=O)c2ccccc2C1=O)NCc1cccnc1	-1.1	-2.4	-4.4	-3.3	0.5	2.0
O=C(NCc1ccco1)c1ccc(NC(=O)C2COc3ccccc3O2)cc1 (centres undefined)	-0.9	12.8	-3.8	-24.2	-5.0	-4.0
CCCCC1CCC(C(=O)Nc2ccccc2N2CCOCC2)CC1 (centres undefined)	-1.9	-2.7	17.3	-16.0	11.4	.
